Screens: PubChem, several laboratories
ALR inh = inhibitors of human ALR sulfhydryl oxidase, primary screen, biochemical, H2O2 detection, HRP-luminol luminescence, single point; purified ALR, DTT oxidation; inhibition, % (test concentration not listed); 290,000 compounds, 3.8% hits; AID 485317, 2010;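 active means mean and each replicate at 75% or more; inconclusive means only one of the two met; inactive means neither met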;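 further: stock transfer was 7.5 nL into about 7.5 µL; 0% = neutral wells and 100% = wells with inactivated enzyme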
Target sequence (P55789 whole entry, looked up): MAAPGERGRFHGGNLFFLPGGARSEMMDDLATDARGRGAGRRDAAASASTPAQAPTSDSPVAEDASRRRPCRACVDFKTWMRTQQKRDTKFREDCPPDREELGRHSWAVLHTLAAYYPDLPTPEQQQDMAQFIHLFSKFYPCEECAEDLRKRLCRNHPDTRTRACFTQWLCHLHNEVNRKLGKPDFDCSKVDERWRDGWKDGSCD
LANA-H2A inh = blockers of LANA interaction with H2A/H2B – biochemical, FP readout, HTS, primary screen; Protein LANA1 (Human herpesvirus 8 type P (isolate GK18)), Q9QR71; 320,000 compounds, 0.6% hits; cell-free LANA-H2A/H2B peptide, fluorescence polarization; AID 2629, 2010; inhibition, % (concentration not given with the values); in the data active means inhibition mostly above about 10%, no sharp cut-off; inactive means mostly below about 6.7%;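 further: stock transfer was 7.5 nL into about 10 µL; 0% = median of vehicle wells and 100% = median of positive control wells; one replicate is shown; the record names a cut of 25% in any replicate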
Beta apoptosis = inhibitors of cytokine-induced beta cell apoptosis, primary screen, luminescence; INS-1E cytokine-induced death, ATP luminescence, 48 h; percent of positive-control rescue, neutral wells zero; protection from apoptosis, % (no concentration beside the values); 300,000 compounds, 0.8% hits; AID 435005, 2010;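 active means all replicates at 75% or more, or half of them and the mean; inconclusive means half reach 75% but not the mean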;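 further: 0% = cytokine-treated negative control wells and 100% = positive control rescue; higher means more ATP so stronger rescue from cytokine killing; wells of about 40 µL received 100 nL stock; the first replicate is given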
Ecoli rRNA inh = reduced GFP signal of wild-type E. coli, primary screen, bacterial rRNA inhibitor project, GFP/RFP fluorescence, OD600, single point | GFP signal change (wild-type ribosome), % (test concentration not listed) | 350,000 compounds, 1.6% hits | AID 720706, 2013 | E. coli WT GFP vs humanized-ribosome RFP mutants, 24 h; active compounds read low; DMSO median 0, no signal -100;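 active means significant combined selectivity score with lowered wild-type GFP, culture density cut under 30%, mutant RFP and density less affected; inactive means any of these conditions unmet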; further: one replicate is shown; some compounds called inactive have numbers as strong as hits
T cruzi inh = inhibitors of intracellular T. cruzi growth, primary screen, luminescence, NIH3T3 host cells | T. cruzi beta-gal in NIH3T3, 90 h | AID 1885, 2009 | 300,000 compounds, 1.4% hits | inhibition, % (test concentration not listed);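 active means mean inhibition across valid replicates above about 55%, limit read from the data; inconclusive means mean below that limit but half or more replicates reach it; inactive means mean below it, under half of replicates reach it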;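 further: signal also drops with host cell toxicity which is not excluded here; 0% = plate median of DMSO wells and 100% = zero luminescence signal; higher percent means less beta-gal luminescence so fewer parasites; stock transfer was 50 nL into about 50 µL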
Bfl-1 A1 inh = caspase 3/7 activation in MEF A1-2A-BIM cells, primary screen, A1 inhibitor project, cell-based, luminescence, HTS. Caspase-Glo 3/7 luminescence, 3 h; percent of clofoctol response, vehicle zero. caspase activation, % (concentration not given with the values). 330,000 compounds, 0.066% hits;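 active means over half of replicate activation scores above 10%, or exactly half above 10 with the replicate mean above 10; inconclusive means replicate mean below 10 yet half the replicates above 10; inactive means over half of replicates below 10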;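 further: wells of about 30 µL received 50 nL stock; many hits fall short of the cut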
Calb FLC = C. albicans growth inhibition with fluconazole, primary screen, CaCi-2 strain, Alamar Blue fluorescence; 300,000 compounds, 0.57% hits; growth inhibition, % (test concentration not listed); AID 1979, 2009; C. albicans CaCi-2 (fluconazole-resistant clinical isolate) + fluconazole, 48 h;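 active means most replicates above 75%; inconclusive means exactly half above 75%; inactive means most below 75%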;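 further: all wells also contain fluconazole at 8 µg/ml as a sub-toxic cotreatment; 0% = median of DMSO wells and 100% = median of geldanamycin control wells; wells of about 8 µL received 7.5 nL stock; the first replicate is given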
Beta2AR agonist = beta2AR agonists driving receptor internalization, primary screen, cell-based, FAP fluorogen, flow cytometry. Am2.2-beta2AR cells; reference of the scale not given here. 340,000 compounds, 0.43% hits. Beta-2 adrenergic receptor (Homo sapiens), P07550. response, % (concentration not given with the values);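 active means response above a set limit, near 3 SD of response in nonfluorescent compounds, cut at about 42% in these data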;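 further: stock transfer was 100 nL into about 11 µL; a reference agonist was the positive control; negative values mostly stem from fluorescent compounds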
Target sequence (P07550 whole entry, looked up): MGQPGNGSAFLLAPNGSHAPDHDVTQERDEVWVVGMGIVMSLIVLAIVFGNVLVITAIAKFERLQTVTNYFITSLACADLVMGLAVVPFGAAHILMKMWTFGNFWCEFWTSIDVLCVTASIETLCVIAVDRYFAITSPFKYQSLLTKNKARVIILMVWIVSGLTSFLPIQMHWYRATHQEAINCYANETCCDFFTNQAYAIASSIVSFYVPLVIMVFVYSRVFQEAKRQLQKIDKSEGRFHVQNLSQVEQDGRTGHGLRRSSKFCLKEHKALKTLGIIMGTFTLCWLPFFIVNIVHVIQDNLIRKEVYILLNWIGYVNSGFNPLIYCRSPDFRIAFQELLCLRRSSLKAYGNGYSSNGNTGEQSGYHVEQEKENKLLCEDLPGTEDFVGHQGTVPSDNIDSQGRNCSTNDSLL
Ecoli rRNA inh OD600 = also measured in Ecoli rRNA inh; calls as there; OD600 change, %; measured here: OD600 growth;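 optical density of the mix in the first replicate; 0 = DMSO median and -100 = no signal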
Ecoli rRNA inh RFP = second read-out of Ecoli rRNA inh, no call of its own (marks repeat the call); RFP signal change, %; measured here: RFP humanized mutant strains;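 first replicate; 0 = DMSO median and -100 = no signal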
* marks the source's active call; other numbers are inactive results; ? = inconclusive; . = not tested or not shown. The list is partial (hit frequency here may not be typical).

Structure	ALR inh	LANA-H2A inh	Beta apoptosis	Ecoli rRNA inh	Ecoli rRNA inh OD600	Ecoli rRNA inh RFP	T cruzi inh	Bfl-1 A1 inh	Calb FLC	Beta2AR agonist
O=c1c2c3c(sc2nc2n1CCCCC2)CCC3	-3	3.3	6	.	.	.	1	0.2	-10	-11
Cn1nc(Oc2ncc(C(F)(F)F)cc2Cl)cc1C(F)(F)F	4	-0.4	-5	14	12	1.3	-10	0.4	-27	3
Cc1nc2ccc(S(=O)(=O)Nc3ccccc3C)cc2s1	-5	-1.6	0	-13	-19	-7.3	11	0.3	22	-15
Cn1c(SCC(=O)c2ccccc2)nnc1C1CC1	12	-1.3	-1	.	.	.	-4	0.7	-3	3
CCOC(=O)C1CCN(C(=O)Cn2nc(CC)n3cccc3c2=O)CC1	0	2.1	-3	-1	-4	0.0	-9	1.5	-2	-2
CCc1ccccc1N(CC(=O)N1CCc2ccccc2C1)S(C)(=O)=O	2	1.9	-3	.	.	.	1	-0.2	-13	-7
O=C(CN1C(=O)C2CCCCC2C1=O)OCn1nnc2ccccc2c1=O (stereo not drawn)	-2	11	-1	-5	-3	-1.5	1	0.6	4	-1
C=CCc1cc(C=O)cc(OC)c1OCc1ccc(Cl)cc1	-3	-0.3	.	.	.	.	16	0.3	2	8
O=C(NCC(c1cccs1)N1CCOCC1)c1ccccc1NS(=O)(=O)c1cc([N+](=O)[O-])ccc1Cl (stereo not drawn)	-24	3.3	21	4	12	0.1	-9	0.2	-7	-3
O=C(CSc1nccn1-c1ccccc1)c1ccc(Br)cc1	.	2.3	-5	.	.	.	-11	-0.3	-16	-1
Cc1ccc(-c2nnc(Nc3ccc(C(N)=O)cc3)c3ccccc23)cc1S(=O)(=O)NCC1CCCO1 (stereo not drawn)	13	-9.8	0	.	.	.	-32	0.1	12	0
COc1ccc(NS(=O)(=O)c2ccc(NC(=O)C(CCSC)NC(N)=O)cc2)cc1 (stereo not drawn)	1	0.3	3	5	9	5.9	-1	-0.8	-2	-4
O=C(CCc1ccccc1)Nc1ccnn1C1CCN(Cc2ncc[nH]2)CC1	-2	2.4	-5	3	12	-1.4	-7	0.0	0	-6
CCOc1cc([N+](=O)[O-])cc2c1C(=O)Nc1ccccc1O2	-5	-2.1	2	.	.	.	23	1.1	13	-103
C/C(N)=C(/C#N)C(=O)CSc1nn(-c2ccc(Cl)cc2)c(=S)s1	26	-6.4	-4	6	5	-0.1	21	-0.8	45	-5
CC(NC(=O)c1ccc(F)cc1)c1ccc2c(c1)CCCC2 (stereo not drawn)	.	-1.0	-9	.	.	.	11	?	6	-10
Cc1cc(C)nc(SCCCn2c(=O)[nH]c3ccccc32)n1	-11	2.8	-5	.	.	.	10	-0.2	8	-9
CC1(C)CC(=O)c2c(nc3ccccc3c2N)C1	-7	-3.4	0	.	.	.	11	-0.1	-10	-4
CNC[C@H](CC1CCCCC1)NC[C@H](Cc1ccccc1)NCCC12CC3CC(CC(C3)C1)C2	-39	-1.6	114*	-56	-82	-29	46	-0.4	91*	52*
CSCCC(NC(=O)COc1ccccc1)C(=O)N1CCCCCC1 (stereo not drawn)	.	-3.8	-4	.	.	.	.	1.5	.	-14
COc1ccc(C(=O)C2CCCN(Cc3cn[nH]c3-c3ccccc3)C2)cc1OC (stereo not drawn)	4	4.8	-2	7	0	2.4	6	-0.6	-7	1
O=S(=O)(Nc1nc2ccccc2nc1NCCO)c1cccc(Cl)c1	3	6.4	-1	.	.	.	-10	0.1	36	-1
Nc1nonc1C(=O)N1CCCCC1	-8	-7.5	-1	20	27	6.7	-6	0.4	-4	2
O=C(CN1CCN(c2ncccn2)CC1)NCc1ccccc1	0	1.6	-5	.	.	.	-2	0.4	-7	-4
CCCc1cc(=O)[nH]c(SCC(=O)c2cc(C)n(CC3CCCO3)c2C)n1 (stereo not drawn)	.	-4.3	-3	-3	-2	4.6	.	0.5	.	6
Cc1nc2nc(C)c(NS(=O)(=O)c3ccc(C4CCCCC4)cc3)c(=O)n2[nH]1	.	-1.3	-5	-11	-25	-1.5	-7	-0.9	-4	-16
CCC1=C2CC[C@H]3C(=O)N(c4ccccc4)C(=O)[C@H]3[C@H]2[C@@]2(C)C(=NCc3ccccc3)OC(=O)N2C1=O	.	-2.6	-6	4	12	0.6	-3	-0.4	-12	9
COC(=O)C1=C(CS(=O)(=O)c2ccccc2)NC(=O)NC1c1ccccc1 (stereo not drawn)	-4	4.6	0	2	-1	-0.7	-5	-1.1	-5	-1
CCN(CC)S(=O)(=O)c1cc(NC(=O)C(C)N2CCN(Cc3ccc4c(c3)OCO4)CC2)ccc1C (stereo not drawn)	-4	-6.8	-1	-21*	-14*	-0.5*	?	1.2	-17	14
COc1ccc(/C=N/NC(=O)c2cccnc2)cc1	-13	3.9	1	6	12	-2.1	-9	-1.0	-1	-1
Cc1nonc1NC(=O)Nc1cccnc1	-22	-2.0	-2	.	.	.	-7	0.0	15	-1
CC(=O)Nc1ccc(S(=O)(=O)N2CCN=C2SCc2ccc(C)cc2)cc1	-11	-5.1	1	-22	-34	-2.9	43	?	-4	-6
CC(C)(C)c1ccccc1NC(=O)c1ccc2c(c1)SC1=NS(=O)(=O)CCN12	.	-4.6	2	12	1	0.2	0	0.9	22	-6
O=C(c1ccc(Cl)cc1)C1CCCN(Cc2ccc(Oc3ncccn3)cc2)C1 (stereo not drawn)	.	-5.8	4	-7	-6	2.0	48	-0.5	-2	4
COc1ccc(C(=S)N2CCOCC2)cc1OC(=O)c1ccc([N+](=O)[O-])cc1[N+](=O)[O-]	-5	-0.2	0	-12	-3	-1.4	0	-0.3	-1	-1
Cc1[nH]nc(SCC(=O)NC2CCCC2)c1[N+](=O)[O-]	1	2.1	-3	7	1	0.0	-3	-1.6	-8	0
COc1ccc(S(=O)(=O)N(C)CC(=O)O)c2ccccc12	-11	-2.2	-6	.	.	.	-4	-1.0	0	-2
C=CCNC(=O)c1onc(CS(=O)(=O)c2cc(C)cc(C)c2)c1C(=O)NCC=C	-2	-4.0	2	1	9	-11	5	-0.8	6	-1
COc1cc(CN2CCCC(C(=O)Nc3cccc(-n4cccn4)c3)C2)ccc1F (stereo not drawn)	-4	-2.8	0	-10	-13	0.7	61*	-0.2	-4	-7
COc1ccc([C@@H]2C[C@@H](c3ccccc3)Oc3c(C)ccc(C(C)C)c32)cc1	22	5.6	0	6	5	-2.1	13	1.8	-4	.
Cc1ccc(NC(=O)CN(C)C(=O)c2sc3cc(Cl)ccc3c2Cl)cc1	.	.	-3	7	1	0.6	-1	0.7	1	1
COc1ccc(NC(=O)Nc2ccccc2OC)cc1	1	4.3	7	.	.	.	6	-0.2	-20	-8
O=C(NCCO)c1nc2ccccc2s1	0	0.4	-4	.	.	.	-12	-0.2	-6	-8
Cc1cc(C)c2oc(C(=O)Nc3ccc(S(=O)(=O)N4CCCC(C)C4)cc3)cc(=O)c2c1 (stereo not drawn)	-4	-7.6	17	6	3	3.1	-3	0.2	0	-2
Cc1ccc(NC(=O)c2ccc(CSc3nnc(C)s3)cc2)c(C)c1	-13	-5.3	1	.	.	.	-11	-0.4	1	-2
CCN1C(=O)C(O)(C2COC(C)(C)CC2=O)c2cc(Br)ccc21 (stereo not drawn)	-1	-6.6	-3	.	.	.	3	0.3	-7	-3
N#Cc1ccccc1-n1c(N)c(C(=O)N2CCCC2)sc1=S	?	6.0	2	.	.	.	.	-0.4	2	-12
O=C(Cc1ccc(F)cc1)N1CCN(c2ccc(F)cc2)CC1	.	-0.2	-1	-1	-9	2.8	-7	-0.3	3	0
NC(=O)NC(=O)COC(=O)CCCc1c[nH]c2ccccc12	?	0.8	-8	.	.	.	-8	-0.2	3	-1
CCOC(=O)c1[nH]c(C(=O)O)c(CCN(CC)CC)c1C	0	-1.2	-8	16	4	-4.9	-28	-0.3	-24	-2
COc1ccc(OC)c2sc(NC(=O)C3=COCCO3)nc12	-36	-0.5	6	8	-3	4.7	0	-5.4	10	-15
C=CCNC(=S)NNC(=O)c1csc(CC)c1	5	-1.4	.	.	.	.	-8	-0.6	-31	6
CC(C)N(C(=O)Cn1c(Cl)nc2ccccc21)C(C)C	-3	3.3	-11	-1	8	-7.8	-12	-0.2	-4	2
CCOc1ncccc1C(=O)NCc1ccccc1	-3	7.5	3	.	.	.	0	-1.3	16	.
COc1ccc(-c2cc(C(=O)Nc3ccccc3N3CCOCC3)c3ccccc3n2)cc1OC	12	-1.3	15	8	7	-3.7	16	-0.4	1	-3
Cn1nnnc1SCc1cc(=O)n2ccsc2n1	-3	-4.3	-6	.	.	.	0	0.1	6	-3
CC(C)(C)NC(=O)Cn1nnc(-c2ccccc2Cl)n1	-3	-4.2	-1	.	.	.	-3	0.6	2	-4
CCn1c(/C=C/N(C(C)=O)c2ccccc2)[n+](CC)c2ccc(Cl)cc21	3	2.5	-4	7	12	0.5	9	-0.2	-4	-22
Cc1ccc(C(c2sc3ncnn3c2O)N2CC(C)CC(C)C2)cc1 (stereo not drawn)	-5	-0.1	-9	-13	-41	-1.5	0	0.2	-2	8
NC(=O)CSc1nccn1Cc1ccc2c(c1)OCO2	24	7.2	-7	15	9	2.9	-1	-0.1	-1	-1

(further entries)
Structure	ALR inh	LANA-H2A inh	Beta apoptosis	Ecoli rRNA inh	Ecoli rRNA inh OD600	Ecoli rRNA inh RFP	T cruzi inh	Bfl-1 A1 inh	Calb FLC	Beta2AR agonist
COc1ccc(N(C(=O)C2CSC(=O)C2)C(C(=O)NC(C)(C)C)c2ccncc2)cc1 (stereo not drawn)	-11	6.9	-2	10	17	-1.5	-4	0.3	8	1
N/C(=N\OC(=O)COc1ccc(Cl)cc1Cl)c1ccccn1	-4	8.0	1	7	10	1.7	-7	-8.2	-21	-5
CN(C)c1ccc(/C=C(\C#N)C(=O)c2ccccc2)cc1	1	2.7	-3	-10	0	0.5	-3	-0.3	-4	-18
Cc1nn(CC(=O)NCCCN2CCCCC2)c(=O)c2cc(-c3ccccc3)nn12	3	-1.2	0	4	1	-0.4	6	0.7	3	-7
O=C(CNC1CCCCCC1)Nc1ccccc1N1CCOCC1	-5	-1.5	2	10	3	3.2	3	-0.4	-17	-3
O=C(O)c1cc(/C=N\O)ccc1OCc1ccccc1	-7	-6.3	3	.	.	.	0	-0.3	1	5
COc1ccc2cc(C(=O)C3CCCN(C(=O)CCc4cnn(C)c4)C3)ccc2c1 (stereo not drawn)	-7	-3.6	-6	-26	-22	-5.3	8	0.9	33	0
CC(C)Nc1nc(NC(N)=S)nc(NC(C)C)n1	0	-0.4	0	.	.	.	-2	-1.2	-3	-5
CCOC(=O)NC(=O)CSc1nnnn1-c1ccc(Cl)cc1	2	-0.5	3	-15	-4	0.6	-9	0.5	4	-14
